A1 inhib – inhibitors of A1. MEF A1-2A-BIM cells, caspase-Glo luminescence, 3 h; percent of clofoctol signal, DMSO as zero. caspase activation, % (concentration not given with the values). hit rate 0.51% among 21,000;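 active means most replicate scores above 10, or exactly half above 10 with mean activity above 10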;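 further: effector caspase 3 and 7 activity cleaving a DEVD luciferin substrate; 50 nL library stock added to about 30 µL; numbers are from one replicate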
BJeLR viab HTS – compounds reducing viability of BJeLR cells; BJeLR fibroblasts viability, CellTiterGlo ATP luminescence, 48 h; HRASV12, hTERT and SV40 LT/ST transformed; hit rate 0.64% among 30,000; AID 2275; viability loss activity score, % (concentration not given with the values); in the data active means viability loss activity score above about 50%; about a fifth of its hits are not listed in these tables;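 further: higher score means fewer live cells and less ATP luminescence; stock transfer was 50 or 100 nL into about 30 µL; 0% = vehicle wells and 100% = a reference killing control; one replicate is shown; the record names a cut of 85%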
* = called active by the depositor; · = no result given. A portion of the library, so the mix of outcomes need not match the whole.

SMILES	A1 inhib	BJeLR viab HTS
C[C@H](CO)N1C[C@H](C)[C@@H](CN(C)C(=O)NC2CCCCC2)Oc2c(NC(=O)C3CCOCC3)cccc2C1=O	·	2.0
Cc1ccc(S(=O)(=O)Nc2cccc3c2O[C@H](CN(C)Cc2ccccc2)[C@H](C)CN([C@@H](C)CO)C3=O)cc1	·	-3.0
CCCCCC1OC2=C(C(=O)N(OC)C2CSCC(O)C(=O)O)C(O)C1(C)O (stereo unspecified)	1.3	-2.1
C[C@@H]1CN([C@H](C)CO)C(=O)c2cccc(NC(=O)c3cnccn3)c2O[C@@H]1CN(C)C(=O)NC1CCCCC1	·	-3.3
CCSc1nc2c(c(=O)[nH]1)C(c1ccccc1)C1=C(CCCC1=O)N2 (stereo unspecified)	·	-7.0
COc1ccc(-n2nnnc2-c2c[nH]c3ccc(Cl)cc23)cc1	·	1.1
Cc1cc2c(cc3c(=O)n(CC(=O)NCCN4CCOCC4)ncn32)s1	0.1	-2.9
Cc1ccc(S(=O)(=O)N(C)C[C@@H]2Oc3ccc(NC(=O)C4CC4)cc3C(=O)N([C@H](C)CO)C[C@H]2C)cc1	-0.1	-1.9
O=C(CN1C(=O)c2ccccc2S1(=O)=O)N1CCOCC1	·	1.3
C[C@@H]1CN([C@H](C)CO)C(=O)c2cc(NS(C)(=O)=O)ccc2O[C@@H]1CN(C)C(=O)Nc1ccc(F)cc1	0.5	-2.3
C[C@H](CO)N1C[C@H](C)[C@H](CN(C)C(=O)NC2CCCCC2)Oc2c(NC(=O)Nc3ccccc3)cccc2C1=O	·	-0.1
CC1CCCCN1C(=O)c1cccs1 (stereo unspecified)	0.7	-2.2
C[C@H](CO)N1C[C@H](C)[C@H](CN(C)S(=O)(=O)c2cccs2)Oc2c(NS(=O)(=O)c3ccc(F)cc3)cccc2C1=O	·	0.0
C[C@@H]1CN([C@H](C)CO)C(=O)c2cc(NC(=O)Cc3ccccc3)ccc2O[C@H]1CN(C)S(=O)(=O)c1cn(C)cn1	0.3	0.0
C[C@@H]1CN([C@@H](C)CO)C(=O)c2cccc(NC(=O)C3CCOCC3)c2O[C@H]1CN(C)C(=O)NC1CCCCC1	·	-4.5
O=C1c2ccccc2-c2n[nH]c(=O)c3ccc(N4CCOCC4)c1c23	0.2	-7.2
COc1ccc(NC(=O)Nc2ccc3c(c2)C(=O)N([C@@H](C)CO)C[C@H](C)[C@H](CN(C)Cc2ccc(-c4ccccc4)cc2)O3)cc1	0.3	-3.0
O=C(CCNc1ccc(Cc2ccncc2)cc1)c1ccc(Cl)cc1	-0.6	-6.0
O=C(O)c1cccn2c(=O)c3c4c(sc3nc12)CCCC4	·	6.2
Cc1cc(C(=O)Nc2cccc3c2O[C@@H](CN(C)C(=O)Nc2ccccc2)[C@H](C)CN([C@@H](C)CO)C3=O)n(C)n1	·	0.9

2 entries from above in a different format:
| Structure | A1 inhib | BJeLR viab HTS |
| --- | --- | --- |
| CCSc1nc2c(c(=O)[nH]1)C(c1ccccc1)C1=C(CCCC1=O)N2 (stereo unspecified) | · | -7.0 |
| COc1ccc(-n2nnnc2-c2c[nH]c3ccc(Cl)cc23)cc1 | · | 1.1 |

Next section:
SMILES	A1 inhib	BJeLR viab HTS
COc1ccc(CN(C)C[C@H]2Oc3c(NC(=O)Nc4ccc(OC)cc4)cccc3C(=O)N([C@@H](C)CO)C[C@H]2C)cc1	·	2.2
COc1ccc(S(=O)(=O)N(C)C[C@H]2Oc3c(NC(=O)Nc4ccc(C(F)(F)F)cc4)cccc3C(=O)N([C@H](C)CO)C[C@@H]2C)cc1	·	-1.8
CC(=O)N1Cc2ccccc2C(C)CC12CCCCC2 (stereo unspecified)	-0.5	9.0
CCOC(=O)CC1=NN(c2ccccc2)C(=O)/C1=C\c1cc(OC)c(OC)cc1OC	-0.3	1.6
CC12C=CC3(CN(Cc4ccccc4)C(=O)C3C1C(=O)NCc1ccco1)O2 (stereo unspecified)	0.2	3.6
CCN1CNC(=S)N(c2ccccc2)C1	0.3	3.9
Cc1noc(C)c1NC(=O)N(C)C[C@H]1Oc2ccc(NC(=O)CCCCCC(=O)Nc3ccccc3N)cc2C(=O)N([C@H](C)CO)C[C@H]1C	·	-4.9
CS/C(=C(/C#N)S(=O)(=O)C(C)C)N1CCCC1	-0.1	-2.7
CC1(C)CC(=O)NC(=Nc2ccc(Br)cc2)C(=O)C1	-1.2	1.2
C=CCNc1sc2c(N)nc(N)nc2c1C#N	-0.9	0.5
CCn1c(C(=O)N2CCCC(C(=O)N3CCN(c4cccc(C)c4C)CC3)C2)cc2sccc21 (stereo unspecified)	0.4	1.6
COc1ccc(CN(C)C[C@@H]2Oc3ccc(NC(=O)Nc4ccc(F)cc4)cc3C(=O)N([C@@H](C)CO)C[C@H]2C)cc1	1.0	-1.9
COc1ccc(NC(=O)Nc2ccc3c(c2)C(=O)N([C@H](C)CO)C[C@H](C)[C@H](CN(C)S(=O)(=O)c2ccc(OC)cc2)O3)cc1	1.0	-4.4
Cc1ccccc1C(=O)Nc1cccc(NC(=O)c2ccc(-c3ccc(Cl)cc3Cl)o2)c1	0.2	7.5
CC(C)c1ccc(NC(=O)C(c2ccccc2)N2CCc3ccccc32)cc1 (stereo unspecified)	·	-2.2
CCOC(=O)N1CCN(C(=O)CSCC(=O)N=c2sc3ccccc3n2C)CC1	·	0.0
Cc1ccc(S(=O)(=O)N(C)C[C@@H]2Oc3c(NS(=O)(=O)c4ccc(Cl)cc4)cccc3C(=O)N([C@@H](C)CO)C[C@H]2C)cc1	·	-0.3
COc1ccc(NC(=O)C(NC(=O)c2ccc(=O)[nH]c2)c2ccc(C)cc2)cc1 (stereo unspecified)	·	-1.1
COc1ccc(S(=O)(=O)N(C)C[C@@H]2Oc3c(NS(=O)(=O)c4ccccc4)cccc3C(=O)N([C@@H](C)CO)C[C@@H]2C)cc1	·	4.1
Cc1ccc(CSCc2ccc(C(=O)NCCC(C)C)o2)cc1	-0.2	8.0
C[C@@H]1CN([C@@H](C)CO)C(=O)c2cccc(NC(=O)Nc3ccc(C(F)(F)F)cc3)c2O[C@H]1CN(C)C(=O)Nc1ccc2c(c1)OCO2	·	-3.6
c1ccc2[nH]c(SCCCN3CCCCC3)nc2c1	0.8	-0.1
C[C@@H]1CN([C@H](C)CO)C(=O)c2cccc(NC(=O)C3CC3)c2O[C@H]1CN(C)CC1CC1	·	-6.8
CCCOc1ccc(=O)n(C)n1	-0.1	-0.7
CC(C)CC(=O)N1CCN(Cc2ccc(Cl)cc2)CC1	0.8	-2.1
CC(=O)Nc1ccc(OS(=O)Nc2nnc(C)c3ccccc23)cc1 (stereo unspecified)	1.0	5.7
CCC(C)NC(=O)CC(c1ccc(OC)cc1)n1cccc1 (stereo unspecified)	-0.5	2.1
Cc1noc(C)c1S(=O)(=O)Nc1ccc2c(c1)C(=O)N([C@@H](C)CO)C[C@@H](C)[C@H](CN(C)Cc1ccc(Oc3ccccc3)cc1)O2	-0.2	-2.6
CC1CC(C)(C)NC(=S)N1CC(=O)NCc1ccc2c(c1)OCO2 (stereo unspecified)	·	-6.4
Cc1noc(C)c1NC(=O)N(C)C[C@H]1Oc2c(NC(=O)Nc3cccc4ccccc34)cccc2C(=O)N([C@H](C)CO)C[C@@H]1C	·	8.7
C=C1C(=O)O[C@H]2C3=C(C)C[C@H](OC(C)=O)C[C@]3(C)CC[C@@H]12	0.4	-1.9
CC1=C(C(=O)Nn2cnc3cccc(F)c3c2=N)Sc2ccccc2N1	0.5	-1.7
C[C@@H]1CN([C@H](C)CO)C(=O)c2cccc(NC(=O)c3cnccn3)c2O[C@@H]1CN(C)S(=O)(=O)c1ccccc1	·	2.9
C[C@H]1CN([C@@H](C)CO)C(=O)c2cccc(NS(=O)(=O)c3ccc(Cl)cc3)c2O[C@H]1CN(C)CC1CC1	·	-3.4
CC(C)NC(=O)N(C)C[C@@H]1Oc2ccc(NC(=O)Cc3cn(C)c4ccccc34)cc2C(=O)N([C@@H](C)CO)C[C@@H]1C	0.0	2.4
O=C(NCCc1ccccc1)c1noc2c1CCc1ccccc1-2	·	-5.1
Cc1ccccc1-n1c(=S)[nH]c2nc3c(cc2c1=O)CCCC3	0.2	0.9
Cc1noc(C)c1NC(=O)N(C)C[C@@H]1Oc2c(NS(=O)(=O)c3ccc(F)cc3)cccc2C(=O)N([C@H](C)CO)C[C@H]1C	·	-0.4
C[C@@H]1CC[C@H](O)/C=C/C(=O)O[C@H](C)CC[C@H](O)/C=C/C(=O)O1	-0.4	-7.7
O=C(CSc1ccccn1)NCc1ccccc1	-1.4	-3.1
CCCc1c(-c2ccccc2)nc2sc3c(c2c1N)CCCCC3	0.2	6.6
Nc1nonc1-c1ccccc1	-0.6	-3.9
C[C@H]1CN([C@@H](C)CO)C(=O)c2cc(NC(=O)Nc3ccc(F)cc3)ccc2O[C@H]1CN(C)C	0.2	-11
C[C@H](CO)N1C[C@H](C)[C@@H](CN(C)CC2CC2)Oc2c(NC(=O)Nc3cccc4ccccc34)cccc2C1=O	·	3.2
O=C(Cc1ccccc1)Nc1c(C(=O)N2CCCCC2)cnn1-c1ccccc1	1.0	-2.0
CN(CC(=O)N1CC=C(c2ccccc2)CC1)S(=O)(=O)c1cnc[nH]1	0.8	-0.8
CCOC(=O)N1CCN(C(=O)CCCN2C(=O)/C(=C\c3cccs3)SC2=S)CC1	·	-3.8
COCN(C#N)c1nc(N(C)C)nc(N(C)C)n1	0.2	1.7
COc1ccc(S(=O)(=O)Nc2ccc3c(c2)C(=O)N([C@@H](C)CO)C[C@@H](C)[C@@H](CN(C)Cc2ccc(Cl)c(Cl)c2)O3)cc1	0.0	-0.5
COc1ccc(NC(=O)N(C)C[C@H]2Oc3ccc(NC(=O)CCCN(C)C)cc3C(=O)N([C@@H](C)CO)C[C@H]2C)cc1	-0.4	-0.5
Cc1ccc(C(=O)c2cccs2)s1	-2.6	0.4
C[C@@H]1CN([C@H](C)CO)C(=O)c2cc(NC(=O)c3ccncc3)ccc2O[C@H]1CN(C)Cc1ccccc1	0.4	-5.3
O=C(O)CN1C(=O)CC(Cc2ccc(Cl)cc2)C1=O (stereo unspecified)	-0.4	1.8
C[C@H](CO)N1C[C@H](C)[C@@H](CN(C)C(=O)Nc2ccc(F)cc2)Oc2ccc(NS(=O)(=O)c3ccc(Cl)cc3)cc2C1=O	-0.1	-5.7
C[C@H]1CN([C@@H](C)CO)C(=O)c2cc(NC(=O)Nc3ccccc3)ccc2O[C@@H]1CN(C)C(=O)Nc1ccccc1	0.1	1.7
COCC(C)NC(=O)c1ccc(NC(C)=O)cc1 (stereo unspecified)	-0.1	4.3
COc1ccc(NC(=O)Nc2cccc3c2O[C@@H](CN(C)C)[C@H](C)CN([C@H](C)CO)C3=O)cc1	·	-0.2
O=C(/C=C/c1ccccc1)C1C(=O)C(=O)N(c2ccccc2)C1c1ccccc1 (stereo unspecified)	-2.0	1.0
COc1ccc(-n2nc(C(F)(F)F)cc2-c2cccs2)cc1	-0.5	5.8
Cc1c2cnn(CC(=O)NC(C)c3ccc4c(c3)OCCO4)c(=O)c2c(C)n1Cc1ccc(F)cc1 (stereo unspecified)	-0.1	1.2

3 entries out of the list, ordered by length of the SMILES, smallest number first.
SMILES	A1 inhib	BJeLR viab HTS
O=C(CN1C(=O)c2ccccc2S1(=O)=O)N1CCOCC1	·	1.3
C[C@H]1CN([C@@H](C)CO)C(=O)c2cccc(NS(=O)(=O)c3ccc(Cl)cc3)c2O[C@H]1CN(C)CC1CC1	·	-3.4
Cc1noc(C)c1NC(=O)N(C)C[C@@H]1Oc2c(NS(=O)(=O)c3ccc(F)cc3)cccc2C(=O)N([C@H](C)CO)C[C@H]1C	·	-0.4

Further structures:
SMILES	A1 inhib	BJeLR viab HTS
CC(=O)CCC1C2C(O)C(C(C)C)C(OC(=O)/C=C/c3ccccc3)CC12C (stereo unspecified)	-0.5	-4.2
Cc1ccc(S(=O)(=O)N(C)C[C@@H]2Oc3c(NC(=O)c4nc5ccccc5s4)cccc3C(=O)N([C@@H](C)CO)C[C@H]2C)cc1	·	-5.5
C[C@@H]1CN([C@@H](C)CO)C(=O)c2cc(NC(=O)C3CCCCC3)ccc2O[C@H]1CN(C)Cc1ccc(Cl)c(Cl)c1	-0.7	2.0
O=C1/C(=C\c2ccccn2)Cc2ccccc21	·	-5.2
C[C@@H]1CN([C@@H](C)CO)C(=O)c2cccc(NC(=O)C3CC3)c2O[C@@H]1CN(C)Cc1ccncc1	·	0.3
C[C@H]1CN([C@@H](C)CO)C(=O)c2cccc(NC(=O)C3CCOCC3)c2O[C@@H]1CN(C)C(=O)Nc1ccc2c(c1)OCO2	·	19
C=CCNC(=O)COc1ccc(Cl)cc1Cl	-2.0	-6.7
O=c1c(Cc2ccccc2OCc2ccccc2)coc2ccccc12	0.1	-7.1
c1ccc(OCCSc2nc3ccccc3n2CCOc2ccccc2)cc1	-0.3	-0.4
C[C@@H]1CN([C@H](C)CO)C(=O)c2cccc(NS(=O)(=O)c3cccs3)c2O[C@H]1CN(C)C	·	3.6
C[C@H](CO)N1C[C@H](C)[C@@H](CN(C)Cc2ccc(C(=O)O)cc2)Oc2c(NC(=O)Nc3ccc(C(F)(F)F)cc3)cccc2C1=O	·	-2.8

4 of the compounds above, with values under each structure.
Each structure is followed by: A1 inhib | BJeLR viab HTS
> CC(=O)CCC1C2C(O)C(C(C)C)C(OC(=O)/C=C/c3ccccc3)CC12C (stereo unspecified)
→ -0.5 | -4.2
> Cc1ccc(S(=O)(=O)N(C)C[C@@H]2Oc3c(NC(=O)c4nc5ccccc5s4)cccc3C(=O)N([C@@H](C)CO)C[C@H]2C)cc1
→ · | -5.5
> C[C@@H]1CN([C@@H](C)CO)C(=O)c2cc(NC(=O)C3CCCCC3)ccc2O[C@H]1CN(C)Cc1ccc(Cl)c(Cl)c1
→ -0.7 | 2.0
> O=C1/C(=C\c2ccccn2)Cc2ccccc21
→ · | -5.2

Assay outcomes from PubChem.
